RGS16-Gao HTS – modulates binding between human RGS16 and Galphao; bead-based flow cytometry RGS16-Galphao binding, fluorescence; actives lie on both sides; binding response (% of control), % at 10 µM; 220,000 compounds, 0.38% hits; AID 1441;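 active = below 25% or above 175%, edge rows of some plates excepted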;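 also: Galphao activated by GDP with aluminum fluoride before binding; 100% = wells without compound and 0% = beads without RGS; some results beyond the cut were filed as inactive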
Target sequence (O15492 whole entry, looked up): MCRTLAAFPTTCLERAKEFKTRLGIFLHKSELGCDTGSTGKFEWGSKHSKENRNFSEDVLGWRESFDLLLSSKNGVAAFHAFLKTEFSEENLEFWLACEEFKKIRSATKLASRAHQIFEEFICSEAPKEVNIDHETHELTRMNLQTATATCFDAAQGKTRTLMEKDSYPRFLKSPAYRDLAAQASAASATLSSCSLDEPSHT
Target sequence (P09471 whole entry, looked up): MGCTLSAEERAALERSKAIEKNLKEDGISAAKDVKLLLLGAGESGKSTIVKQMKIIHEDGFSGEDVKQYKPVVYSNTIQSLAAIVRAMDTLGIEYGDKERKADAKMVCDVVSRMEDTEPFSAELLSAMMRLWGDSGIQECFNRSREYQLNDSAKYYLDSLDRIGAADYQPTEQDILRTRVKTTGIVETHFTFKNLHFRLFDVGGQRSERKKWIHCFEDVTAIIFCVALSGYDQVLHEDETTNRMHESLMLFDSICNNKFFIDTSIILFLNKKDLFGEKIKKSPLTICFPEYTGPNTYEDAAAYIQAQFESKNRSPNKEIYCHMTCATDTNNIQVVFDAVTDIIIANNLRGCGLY
PKD1 kinase inh – PKD1 (human) kinase inhibition; Q15139; PKD1 kinase fluorescence polarization assay; inhibition, %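 (about 10 µM by stock and volumes)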; 200,000 compounds, 0.056% hits;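 active = inhibition of 50% or more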;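 also: controls were vehicle for no effect and a reference inhibitor for full effect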
GALR2 ag – GALR2 (human) receptor agonism; O43603; GALR2-expressing cells, agonist activation read-out; activation, %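 (tested at 5 µM)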; 140,000 compounds, 0.48% hits;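 active = above mean plus 3 SD of all compounds, about 5% in these data, not always enough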;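 also: 0% = vehicle buffer wells and 100% = reference agonist at full effect; tested in CHO reporter cells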
Target sequence (O43603 whole entry, looked up): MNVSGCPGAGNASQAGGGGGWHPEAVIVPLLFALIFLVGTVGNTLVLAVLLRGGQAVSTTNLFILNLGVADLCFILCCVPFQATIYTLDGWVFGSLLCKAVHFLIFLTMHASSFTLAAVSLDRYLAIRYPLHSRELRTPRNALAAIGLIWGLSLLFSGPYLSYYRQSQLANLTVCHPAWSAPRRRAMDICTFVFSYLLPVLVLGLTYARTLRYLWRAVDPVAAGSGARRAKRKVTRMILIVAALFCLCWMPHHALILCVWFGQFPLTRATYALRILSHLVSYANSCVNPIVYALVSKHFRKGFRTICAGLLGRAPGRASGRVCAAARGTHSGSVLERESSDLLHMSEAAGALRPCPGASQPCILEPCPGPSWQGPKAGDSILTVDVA
HSV replic up – HSV replication enhancement. HSV replication augmentation in cells, fold increase. 220,000 compounds, 0.005% hits. AID 1956. maximum fold increase;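 active = peak rise of 1.5-fold or more in the series; tested in PC3 cells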;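 also: first round at 10 µM; read as green reporter fluorescence; hits show the peak of a series up to 25 µM; 1 = signal of infected wells without compound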
Insulin prom inh – TRM-6 insulin promoter activity inhibition; TRM-6 cells (human fetal islet line), insulin promoter-eGFP reporter, imaging; reporter expression induced with tamoxifen; 130,000 compounds, 0.9% hits; AID 1273; inhibition, % at 2 µM;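 active = inhibition above the mean plus 3 SD, with well images judged a real hit on visual review, cut at about 60% in these data, passing the limit was not always enough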
Insulin prom inh cell count – second read-out of Insulin prom inh, no call of its own (marks repeat the call); normalized cell count, %; measured here: cell count, toxicity; reference of the scale not given here;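 cells exposed to compound for 48 h; stained nuclei by imaging scaled within each plate; lower means fewer cells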
HSV replic up primary fold – second read-out of HSV replic up, no call of its own (marks repeat the call); fold increase; compound at 10 µM; measured here: primary screen fold increase 10 uM; tested in PC3 cells;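 GFP signal in the first replicate; 1 = infected wells without compound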
Active calls of the source: *. Rows were taken by chance (roughly 1.1% active in at least one column).

For CCCCc1c(C)nn(-c2nnc3c4ccccc4n(C)c3n2)c1C the results were RGS16-Gao HTS 108, PKD1 kinase inh 2, GALR2 ag 2.2, Insulin prom inh -8 and Insulin prom inh cell count 45.
Clc1ccc(CN2C3=NCCCN3c3ccccc32)cc1Cl was read as RGS16-Gao HTS 82, PKD1 kinase inh 5, HSV replic up inactive and HSV replic up primary fold 0.72.
Screening O=C(O)c1ccccc1/C=N/Nc1nc(N2CCCCC2)nc(N2CCCCC2)n1 returned RGS16-Gao HTS 95, PKD1 kinase inh -1, HSV replic up inactive and HSV replic up primary fold 1.
Screening Cc1nc(-c2ccccc2)cn2c1nc1ccccc12 returned RGS16-Gao HTS 102, PKD1 kinase inh 5, GALR2 ag 0.3, HSV replic up inactive, Insulin prom inh -13, Insulin prom inh cell count 76 and HSV replic up primary fold 1.1.
For CN(C)S(=O)(=O)c1ccc(C(=O)Oc2cc(=O)[nH]c3ccccc23)cc1 the results were RGS16-Gao HTS 51, PKD1 kinase inh -3, GALR2 ag -0.6, HSV replic up inactive, Insulin prom inh 9, Insulin prom inh cell count 103 and HSV replic up primary fold 0.98.
N#Cc1c2ccccc2nc2ccccc12 was read as RGS16-Gao HTS 94, HSV replic up inactive and HSV replic up primary fold 1.1.
Screening O=C(O)c1ccc(CSc2nnc(Cc3ccccc3)o2)cc1 returned RGS16-Gao HTS 102, PKD1 kinase inh -3, GALR2 ag -0.8, HSV replic up inactive and HSV replic up primary fold 0.74.
`CC(CC(=O)O)CC(=O)Nc1cc(C(F)(F)F)cc(C(F)(F)F)c1` (stereo unspecified) gave RGS16-Gao HTS 83, HSV replic up inactive and HSV replic up primary fold 0.97.
`COc1ccc(/C=N/Nc2cc(OC)ncn2)cc1` gave RGS16-Gao HTS 101, PKD1 kinase inh 0, GALR2 ag -1.2, HSV replic up inactive, Insulin prom inh 12, Insulin prom inh cell count 97 and HSV replic up primary fold 1.
For O=C1/C(=N\S(=O)(=O)c2cccs2)C([n+]2ccc(CCCc3ccccc3)cc2)=C([O-])c2ccccc21 the results were RGS16-Gao HTS 99, HSV replic up inactive and HSV replic up primary fold 0.63.
Screening Cc1cc(C)n2cc(CSc3nncn3C)nc2n1 returned RGS16-Gao HTS 96, PKD1 kinase inh 10, HSV replic up inactive, Insulin prom inh 12, Insulin prom inh cell count 119 and HSV replic up primary fold 1.1.
For CCN(CC)C(NC(=O)c1ccccc1)C(=O)c1ccccc1 (stereo unspecified) the results were RGS16-Gao HTS 103, PKD1 kinase inh 1, GALR2 ag -0.2, HSV replic up inactive, Insulin prom inh 3, Insulin prom inh cell count 62 and HSV replic up primary fold 0.97.
CCc1c(O)nc(SCc2ccccc2)n(C(C)CC)c1=O (stereo unspecified) was read as RGS16-Gao HTS 82, PKD1 kinase inh -1, GALR2 ag -1.7, HSV replic up inactive, Insulin prom inh 0, Insulin prom inh cell count 96 and HSV replic up primary fold 0.99.
`COc1ccc(-c2cc(C(=O)Nc3c(C)nn(Cc4ccccc4Cl)c3C)no2)cc1` gave RGS16-Gao HTS 87, PKD1 kinase inh -11, GALR2 ag -3.3, HSV replic up inactive, Insulin prom inh 42, Insulin prom inh cell count 94 and HSV replic up primary fold 0.83.
CCC(C(=O)NCCN1CCN(C)CC1)n1c(C)c2cnn(-c3ccccc3)c(=O)c2c1C (stereo unspecified) was read as RGS16-Gao HTS 102, PKD1 kinase inh 1, GALR2 ag -1.3, HSV replic up inactive, Insulin prom inh 58, Insulin prom inh cell count 75 and HSV replic up primary fold 0.99.
Nc1nnc(CCC2CCCCC2)s1 was read as RGS16-Gao HTS 101, PKD1 kinase inh -5, GALR2 ag -2.1, HSV replic up inactive, Insulin prom inh 20, Insulin prom inh cell count 135 and HSV replic up primary fold 1.1.
`COc1cccc(N(CC(=O)NC2CCCC2)C(=O)Cn2nnc(-c3ccc(C)cc3)n2)c1` gave RGS16-Gao HTS 102, PKD1 kinase inh 0, GALR2 ag -1.0, HSV replic up inactive and HSV replic up primary fold 1.
For O=C1CCCCCN1CP(=O)(O)CN1CCCCCC1=O the results were RGS16-Gao HTS 104, HSV replic up inactive and HSV replic up primary fold 0.97.
For CCS(=O)(=O)c1ccc2oc(SCC(=O)NCCc3ccccc3)nc2c1 the results were RGS16-Gao HTS 101, PKD1 kinase inh -3, HSV replic up inactive, Insulin prom inh 35, Insulin prom inh cell count 24 and HSV replic up primary fold 0.91.
COc1ccc(S(=O)CC(=O)Nc2ccc(Cl)cc2Cl)cc1 (stereo unspecified) was read as RGS16-Gao HTS 101, PKD1 kinase inh -1, HSV replic up inactive, Insulin prom inh 15, Insulin prom inh cell count 114 and HSV replic up primary fold 0.94.
For CC1CCN(S(=O)(=O)c2ccc(S(=O)(=O)NCC3COCCO3)cc2)CC1 (stereo unspecified) the results were RGS16-Gao HTS 98, PKD1 kinase inh -4, GALR2 ag -2.0, HSV replic up inactive and HSV replic up primary fold 0.89.
Screening O=c1c2cc(N3CCOCC3)ccc2[nH]c(=S)n1CCCN1CCCC1 returned RGS16-Gao HTS 101, PKD1 kinase inh 4, GALR2 ag -3.2, HSV replic up inactive, Insulin prom inh -40, Insulin prom inh cell count 106 and HSV replic up primary fold 1.1.
For COc1cccc(COc2cc3ccccc3nc2C)c1 the results were RGS16-Gao HTS 88, PKD1 kinase inh -8, GALR2 ag -1.9, HSV replic up inactive, Insulin prom inh -53, Insulin prom inh cell count 169 and HSV replic up primary fold 0.77.
CCOC(=O)c1[nH]c(CSc2nnc(-c3ccc(OC)cc3)o2)c(C(=O)OCC)c1C was read as RGS16-Gao HTS 102, PKD1 kinase inh -9, GALR2 ag -3.5, HSV replic up inactive, Insulin prom inh 6, Insulin prom inh cell count 65 and HSV replic up primary fold 0.95.
`CCOc1ccc(NC(=O)C2CC=CCC2C(=O)O)cc1` (stereo unspecified) gave RGS16-Gao HTS 101, PKD1 kinase inh 1, GALR2 ag -3.0, HSV replic up inactive, Insulin prom inh -3, Insulin prom inh cell count 147 and HSV replic up primary fold 1.2.
CCOC(=O)N1CCN(C(=O)COc2ccccc2OC)CC1 was read as RGS16-Gao HTS 97, PKD1 kinase inh 0, GALR2 ag -1.6, HSV replic up inactive, Insulin prom inh 7, Insulin prom inh cell count 61 and HSV replic up primary fold 0.9.
COc1ccc(-n2c(Cc3cccn3C)nnc2SCC(=O)Nc2cccc(C)c2C)cc1 was read as RGS16-Gao HTS 102, PKD1 kinase inh -11, GALR2 ag -0.4, HSV replic up inactive and HSV replic up primary fold 0.9.
Screening Fc1ccc(CN2C3=NCCN3c3ccccc32)cc1 returned RGS16-Gao HTS 96, HSV replic up inactive and HSV replic up primary fold 0.91.
Cc1cccc(NC(=O)COc2ccc(Br)cc2/C=N/O)c1 was read as RGS16-Gao HTS 105, PKD1 kinase inh -6, GALR2 ag 0.4, HSV replic up inactive, Insulin prom inh -17, Insulin prom inh cell count 114 and HSV replic up primary fold 0.96.
Screening O=C(COC(=O)c1cc([N+](=O)[O-])ccc1NCc1ccccc1Cl)NCC(F)(F)F returned RGS16-Gao HTS 99, PKD1 kinase inh -2, GALR2 ag 0.6, HSV replic up inactive and HSV replic up primary fold 0.89.
For O=C(COc1ccc(Cl)cc1Cl)Nc1nnc(C2=COCCO2)o1 the results were RGS16-Gao HTS 107, PKD1 kinase inh -11, HSV replic up inactive and HSV replic up primary fold 0.98.
O=C(O)CCNC(=O)c1ccccc1 was read as RGS16-Gao HTS 99, PKD1 kinase inh -4, GALR2 ag -2.9, HSV replic up inactive, Insulin prom inh 5, Insulin prom inh cell count 162 and HSV replic up primary fold 1.
`COc1ccc(OC)c(CNC(=O)C2CCN(S(=O)(=O)N3CCCC3)CC2)c1` gave RGS16-Gao HTS 101, PKD1 kinase inh -15, GALR2 ag -0.1, HSV replic up inactive and HSV replic up primary fold 1.
COCCCNC(=S)NNC(=O)c1csc(C)n1 was read as RGS16-Gao HTS 105, HSV replic up inactive and HSV replic up primary fold 1.
Screening O=C(NCCN1CCOCC1)C(Sc1ccccc1)c1ccccc1 (stereo unspecified) returned RGS16-Gao HTS 99, HSV replic up inactive and HSV replic up primary fold 1.2.
Screening N=C1C(c2nc3ccccc3[nH]2)=C(O)CN1c1ccc(F)cc1 returned RGS16-Gao HTS 107, PKD1 kinase inh -3, GALR2 ag -0.8, HSV replic up inactive, Insulin prom inh 1, Insulin prom inh cell count 102 and HSV replic up primary fold 0.96.
For Cc1ccc(-c2noc(-c3ccccc3F)n2)cc1 the results were RGS16-Gao HTS 99, PKD1 kinase inh 3, HSV replic up inactive, Insulin prom inh 5, Insulin prom inh cell count 109 and HSV replic up primary fold 0.96.
`CCc1cccc(NS(=O)(=O)c2ccc3c(c2)NC(=O)CC(=O)N3)c1` gave RGS16-Gao HTS 102, PKD1 kinase inh 1, HSV replic up inactive, Insulin prom inh 47, Insulin prom inh cell count 102 and HSV replic up primary fold 0.93.
`CSc1nc(C)cc(SCCO)n1` gave RGS16-Gao HTS 87, PKD1 kinase inh -4, GALR2 ag -4.0, HSV replic up inactive and HSV replic up primary fold 0.89.
O=C(CCCn1c(=O)c2ccccc2n(Cc2cccc(F)c2)c1=O)NC1CCN(Cc2ccccc2)CC1 was read as RGS16-Gao HTS 112, PKD1 kinase inh 1, HSV replic up inactive and HSV replic up primary fold 0.79.

Copied from the listing for reference:
Clc1ccc(CN2C3=NCCCN3c3ccccc32)cc1Cl was read as RGS16-Gao HTS 82, PKD1 kinase inh 5, HSV replic up inactive and HSV replic up primary fold 0.72.
Screening O=C(O)c1ccccc1/C=N/Nc1nc(N2CCCCC2)nc(N2CCCCC2)n1 returned RGS16-Gao HTS 95, PKD1 kinase inh -1, HSV replic up inactive and HSV replic up primary fold 1.
Screening Cc1nc(-c2ccccc2)cn2c1nc1ccccc12 returned RGS16-Gao HTS 102, PKD1 kinase inh 5, GALR2 ag 0.3, HSV replic up inactive, Insulin prom inh -13, Insulin prom inh cell count 76 and HSV replic up primary fold 1.1.

Continuation.
Screening COc1ccc(C(=O)Nc2ccc(S(=O)(=O)NCc3ccco3)cc2)cc1OC returned RGS16-Gao HTS 104, PKD1 kinase inh 27, GALR2 ag -3.0, HSV replic up inactive, Insulin prom inh -100, Insulin prom inh cell count 113 and HSV replic up primary fold 0.79.
For O=C(C[n+]1cccc(NC(=O)c2ccccc2)c1)c1ccccc1 the results were RGS16-Gao HTS 99, PKD1 kinase inh -2, GALR2 ag -4.2, Insulin prom inh 21 and Insulin prom inh cell count 79.
`CCC(Sc1nc(C)cc(=O)[nH]1)C(=O)Nc1sc2c(c1C#N)CCCC2` (stereo unspecified) gave RGS16-Gao HTS 99, PKD1 kinase inh -18, GALR2 ag -0.9, HSV replic up inactive, Insulin prom inh 0, Insulin prom inh cell count 117 and HSV replic up primary fold 0.93.
Screening O=C(CSc1nnc(Cc2ccccc2)n1-c1ccc(Cl)cc1)N1CCOCC1 returned RGS16-Gao HTS 101, PKD1 kinase inh -8, GALR2 ag -0.1, HSV replic up inactive, Insulin prom inh 26, Insulin prom inh cell count 104 and HSV replic up primary fold 1.1.
`CCOC(=O)c1ccc(NC(=O)CCOc2ccc(C)cc2)cc1` gave RGS16-Gao HTS 105, PKD1 kinase inh 5, GALR2 ag -2.4, HSV replic up inactive, Insulin prom inh -10, Insulin prom inh cell count 85 and HSV replic up primary fold 0.86.
`COc1ccccc1N=Cc1c(C)c(C#N)c2[nH]c3ccccc3n2c1=O` gave RGS16-Gao HTS 95, PKD1 kinase inh -5, HSV replic up inactive and HSV replic up primary fold 1.3.
`Cc1cccc(CSC2=NCCN2C(=O)C2CC2)c1` gave RGS16-Gao HTS 124, PKD1 kinase inh -5, GALR2 ag -0.1, HSV replic up inactive and HSV replic up primary fold 1.
For CC(C)c1ccccc1-n1c(SCC(=O)c2ccc3c(c2)NC(=O)CO3)nc2ccccc2c1=O the results were RGS16-Gao HTS 100, PKD1 kinase inh -4, HSV replic up inactive, Insulin prom inh 12, Insulin prom inh cell count 135 and HSV replic up primary fold 0.79.
For O=C(c1ccc(CNc2c(NC3CCCCC3)c(=O)c2=O)cc1)N1CCc2ccccc21 the results were RGS16-Gao HTS 103, PKD1 kinase inh 2, GALR2 ag -2.1, HSV replic up inactive and HSV replic up primary fold 0.95.
Screening CCOC(=O)c1c(NC(=S)Nc2cc([N+](=O)[O-])ccc2OC)sc2c1CCCCC2 returned RGS16-Gao HTS 102, PKD1 kinase inh -6, GALR2 ag -1.2, HSV replic up inactive and HSV replic up primary fold 1.1.
`O=C(OC(C(=O)NC1CCCCC1)c1ccccn1)c1cccs1` (stereo unspecified) gave RGS16-Gao HTS 99, PKD1 kinase inh -4, GALR2 ag -1.0, HSV replic up inactive, Insulin prom inh -3, Insulin prom inh cell count 59 and HSV replic up primary fold 1.1.
O=C(NCC1CCCO1)c1cc2ccccc2nc1Cl (stereo unspecified) was read as RGS16-Gao HTS 96, PKD1 kinase inh -1, HSV replic up inactive and HSV replic up primary fold 0.94.
